Screens as filed in PubChem BioAssay.
PINK1 expr mod – modulators of PINK1 expression | PINK1 immunofluorescence, high-content cytometry, 24 h | Potency, µM (highest dose often 76.6 µM), for the others: at the highest dose activation (PINK1 increase), most hits filed as activators | hit rate 0.2% among 410,000 | AID 624263; active = well fitted activation curve with a large enough effect; inconclusive = small, poorly fitted or top-dose-only effect; inactive = flat fitted curve, though single readings scatter; cell line not stated here;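 note: potency is the fitted concentration of half-maximal effect; % of control where 0% means no effect; nearly all actives have a fitted effect of over 65% in size; a mitochondrial uncoupler was the plate control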
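Cells are seeded, rested 12 hours, then given compound at five concentrations or DMSO for 24 hours. After fixation, blocking and antibody staining, PINK1 amount and mitochondrial localization are scored; CCCP serves as control.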
TRPML1 agonist – human mucolipin-1 channel agonism. Q9GZU1. TRPML1-expressing cells, Ca2+ dye fluorescence, FDSS; host cell line not named in the record; reference of the full effect not given here. activation, % (no concentration beside the values). hit rate 0.12% among 410,000. AID 624414; in the data active = activation above about 50%; inconclusive = about 30% to 50%; inactive = below about 30%; note: 0% is about no effect; the text of the record puts the active cut at 80%
Target sequence (Q9GZU1 whole entry, looked up): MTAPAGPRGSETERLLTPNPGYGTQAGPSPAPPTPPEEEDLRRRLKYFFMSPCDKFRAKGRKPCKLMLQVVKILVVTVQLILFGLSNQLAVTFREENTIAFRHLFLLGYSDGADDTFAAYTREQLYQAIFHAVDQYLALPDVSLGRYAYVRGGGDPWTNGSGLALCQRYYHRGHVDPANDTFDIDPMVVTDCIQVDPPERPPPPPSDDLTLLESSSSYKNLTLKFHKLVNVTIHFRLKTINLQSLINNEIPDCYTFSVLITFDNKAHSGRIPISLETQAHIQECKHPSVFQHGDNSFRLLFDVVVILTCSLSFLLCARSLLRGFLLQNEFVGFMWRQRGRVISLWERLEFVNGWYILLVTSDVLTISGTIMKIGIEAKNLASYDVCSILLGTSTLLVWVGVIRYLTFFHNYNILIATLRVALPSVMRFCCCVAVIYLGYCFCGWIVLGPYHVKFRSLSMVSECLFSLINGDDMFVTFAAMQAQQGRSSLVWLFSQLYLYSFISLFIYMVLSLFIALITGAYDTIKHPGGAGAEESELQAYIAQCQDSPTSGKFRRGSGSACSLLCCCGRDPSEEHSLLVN
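TRPML1-DL cells, Tet-induced overnight (~16 h, 37 degrees C), loaded 45-90 min at room temperature with Ca8 no-wash calcium dye plus quencher. FDSS fluorescence: 10 s baseline, compound pin-transfer, 110 s agonist read, then EC80 54-4 (4uM final) and 110 s antagonist read.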
TRPML1 inh – blocks the human TRPML1 channel | activity change, negative = inhibition, % (test concentration not listed) | hit rate 0.02% among 390,000 | TRPML1-inducible cells, Ca2+ dye fluorescence, FDSS; stronger effect = lower value; inhibition of EC80 agonist-evoked calcium signal; in the data active means activity change below about -50%; inconclusive means about -30% to -50%; inactive means above about -30%;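 note: stimulus is agonist 54-4 at its EC80 concentration; % is set by controls: 0 for no effect and ±100 for the full control effect; compound concentration not given in the record; the text of the record puts the active cut at -80%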
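Calcium fluorescence in TRPML1-DL cells induced overnight with Tet: a 110 s read after compound pin addition, then a 110 s antagonist read after challenge with 54-4 at 4 uM final (EC80).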
D2 agonist – activates the human D2 dopamine receptor | AID 624465 | hit rate 0.084% among 360,000 | activation, % (test concentration not listed) | P14416 | DiscoveRx PathHunter D2 beta-arrestin, luminescence, 90 min; 100% = 57 uM dopamine signal; in the data active = activation above about 40%; inconclusive = about 15% to 40%; inactive = below about 15%; note: compound concentration not given in the record; the text of the record calls up to 30% inactive
Target sequence (P14416 whole entry, looked up): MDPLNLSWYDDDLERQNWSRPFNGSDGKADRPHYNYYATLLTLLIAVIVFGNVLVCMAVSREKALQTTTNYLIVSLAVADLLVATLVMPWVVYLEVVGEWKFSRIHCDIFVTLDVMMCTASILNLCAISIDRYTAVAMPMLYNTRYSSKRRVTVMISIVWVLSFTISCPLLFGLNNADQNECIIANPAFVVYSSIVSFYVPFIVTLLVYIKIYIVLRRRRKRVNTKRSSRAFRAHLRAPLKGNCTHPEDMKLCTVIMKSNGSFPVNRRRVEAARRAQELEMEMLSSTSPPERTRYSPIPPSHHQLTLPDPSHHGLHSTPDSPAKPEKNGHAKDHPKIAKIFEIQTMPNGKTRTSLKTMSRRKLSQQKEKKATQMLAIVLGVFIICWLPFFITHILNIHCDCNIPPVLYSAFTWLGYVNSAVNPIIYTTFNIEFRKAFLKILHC
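DiscoveRx PathHunter D2 beta-arrestin cells (2,100/well) attached overnight, then compound-stimulated 90 min at 37 C in HBSS/10 mM HEPES/0.1% Tween-20 buffer; beta-galactosidase complementation read by luminescence after 1 h at ambient temperature. Dopamine 57 uM final (EC100) as control.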
CtBP-E1A inh – inhibitors of CtBP/E1A interaction. AlphaScreen GST-E1A/His-CtBP binding, 1536-well; stronger effect = lower value; control for the full effect not named in the record. activity change, % (concentration not given with the values). hit rate 0.49% among 340,000. AID 651724; in the data active means activity change below about -65%; inconclusive means about -30% to -65%; inactive means above about -30%; note: % is set by controls: 0 for no effect and ±100 for the full control effect
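Protein mix (5X: 125 nM each GST-E1A, His-CtBP) was incubated with pinned compound 2 h at 37 deg C in dark, in 50 mM Tris pH 8.0 buffer with 300 mM NaCl. Glutathione donor and nickel acceptor beads followed; AlphaScreen signal read after 1 h.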
Six1-Eya2 blk – Six1/Eya2 interaction inhibition | Q15475+O00167 | activity change, % (test concentration not listed) | AlphaScreen GST-Six1/His-Eya2 binding, biochemical; stronger effect = lower value; control for the full effect not named in the record | hit rate 0.56% among 360,000; in the data active = activity change below about -65%; inconclusive = about -30% to -65%; inactive = above about -30%; note: % is set by controls: 0 for no effect and ±100 for the full control effect; compound concentration not given in the record
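AlphaScreen with GST-Six1 and His-Eya2 (5X mix: 250 nM and 500 nM), glutathione donor and nickel acceptor beads; buffer 50 mM Tris pH 8.0, 300 mM NaCl, 1 mM TCEP; 1 h at 37 C in the dark.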
Active calls of the source: *; ? = inconclusive; · = not tested or not shown; & = joins results of further samples; [ ] = another dose, or the depositor's remark.

SMILES	PINK1 expr mod	TRPML1 agonist	TRPML1 inh	D2 agonist	CtBP-E1A inh	Six1-Eya2 blk
CC(=O)c1ccc(N2CCN(S(=O)(=O)c3ccc(-c4cc(C(F)(F)F)on4)s3)CC2)cc1	1.3%	-0.1	6	·	·	·
Cc1cc(-c2ccccc2)nc(Oc2cccc(C(F)(F)F)c2)c1S(C)(=O)=O	1.6%	4.1	78	-2.1	12	26
Cc1cc(C)cc(C(=O)N2CCCCCC2)c1	2.3%	0.2	-2	11	7	4
O=C(CCS(=O)(=O)c1ccccc1)NNC(=O)CSc1ccccc1F	-0.4%	2.4	21	5.9	6	3
O=C(Nc1ccc(-n2nncc2-c2ccco2)cc1)c1cccc(F)c1	-3.6%[38.3 µM]	4.3	16	-2.2	-13	-20
COc1ccc(NC(=S)N2CCNC(=O)C2CC(=O)Nc2ccc(C)cc2)cc1 (stereo not given)	6.2%	-0.4	4	-2.9	9	-5
CCOC(=O)CCc1c(C)c2ccc(OCc3nn[nH]n3)cc2oc1=O	0.3%	0.6	3	-1.1	0	-7
CCCC(NC(=O)c1ccccc1)c1nc2ccccc2n1Cc1ccc(C(=O)OC)o1 (stereo not given)	1.9%	-0.5	-3	-1.6	1	3
CCN(CC(=O)Nc1c(F)cccc1F)C(=O)C1CCN(S(=O)(=O)c2ccc(C)cc2C)CC1	-0.8%	2.3	44	-4.6	-17	2
Cc1ccc(S(=O)(=O)N2CCC(=O)N(C(COCc3cccc(Cl)c3)Cc3ccccc3)CC2)cc1 (stereo not given)	2.8%	3.0	-2	-1.6	·	-1
COc1cccc(NC(=O)c2sc3nc(C)c(C(=O)Nc4ccc(C)cc4C)c(-c4ccc(C)o4)c3c2N)c1	1.4%	3.3	-21	·	·	·
Cc1ccc(C(=O)/C=C2\NCCNC2=O)cc1	0.5%	-1.0	4	-4.3	1	-2
CCCCC#Cc1cncc(C(=O)N/N=C/c2cccc(OC)c2)c1	0.8%	2.8	-9	-2.1	-8	-7
COc1cccc(CN2CCN(C(=O)c3ccc(-c4ccccc4)cc3)CC2)c1	2.6%	0.2	-28	2.9	-7	-3
O=C(O)Cn1c(-c2ccccn2)nc2ccccc21	0.3%	·	·	1.6	·	-2
COc1ccc(S(=O)(=O)N2CCC3(CC2)OCCN3S(=O)(=O)c2cccs2)cc1	-2.6%	3.8	19	0.3	-6	4
COc1cc(/C(C)=N/NC(=O)CSc2nnc(C)s2)ccc1O	0.4%	-0.1	1	-4.8	-5	-4
COc1cc(-c2cc(O)c(-c3ccc4ccccc4n3)c(=O)[nH]2)cc(OC)c1OC	25%	13	0	-1.2	-14	-6
O=C(Nc1cccc(Cl)c1N1CCCC1)c1ccco1	3.2%	0.2	8	-4.9	9	-1
COc1ccc(S(=O)(=O)NN(C)C)cc1N(C)S(=O)(=O)c1ccc(Cl)cc1	-1.3%	-0.1	20	-6.2	-18	6
CN(CC(=O)NCCC1=CCCCC1)S(=O)(=O)c1ccc2c(c1)CCC(=O)N2	1.5%	-0.4	9	-3.7	-13	-2
CC12CCC(C(=O)Nc3nc4ccccc4s3)(OC1=O)C2(C)C (stereo not given)	-1.6%	-0.7	-3	-1.7	4	0
O=C(CCC(=O)c1ccc(Cl)cc1)OCC(=O)c1ccccc1	2.2%	2.0	13	-3.7	1	45
CNc1cncc(-c2cccc(NS(C)(=O)=O)c2)n1	-0.4%	-0.3	·	-8.4	-67*	?
NNC(=O)c1ccccc1-n1cccc1	2.2%	-0.4	29	8.0	-5	1

Single records, from the list above.
COc1ccc(S(=O)(=O)NN(C)C)cc1N(C)S(=O)(=O)c1ccc(Cl)cc1 in the list: PINK1 expr mod: -1.3%; TRPML1 agonist: -0.1; TRPML1 inh: 20; D2 agonist: -6.2; CtBP-E1A inh: -18; Six1-Eya2 blk: 6
O=C(O)Cn1c(-c2ccccn2)nc2ccccc21 in the list: PINK1 expr mod: 0.3%; TRPML1 agonist: ·; TRPML1 inh: ·; D2 agonist: 1.6; CtBP-E1A inh: ·; Six1-Eya2 blk: -2

Continued:
SMILES	PINK1 expr mod	TRPML1 agonist	TRPML1 inh	D2 agonist	CtBP-E1A inh	Six1-Eya2 blk
CC(C)CSc1oc(-c2ccco2)nc1S(=O)(=O)c1ccccc1	1.8%	1.6	5	-3.0	3	1
O=C(CN1C(=O)c2cccnc2Oc2ccc(Cl)cc21)N1CCCCCC1	1.0%	-0.5	-5	-8.5	-6	-1
C=CCNC(=S)NC1CC(C)(C)NC(C)(C)C1	1.0%	-0.4	-12	-0.7	-15	-4
COCC1CCN(C(=O)c2ccc3oc(C(C)C)nc3c2)C1 (stereo not given)	-0.2%	-0.1	-11	-1.3	4	4
COc1ccc(C(C)C)cc1S(=O)(=O)NC1CCCC1	3.6%	-0.2	46	-0.1	0	2
CCn1c(SCC(=O)OC)nc2sc3c(c2c1=O)CC(C)(C)OC3	-0.6%	0.7	39	0.8	2	7
NC(COCc1ccccc1)c1csc(Nc2ccccn2)n1 (stereo not given)	2.7%	-0.4	·	-4.2	-90*	-89*
O=C(CN(C(=O)c1ccccc1)C(=O)c1ccccc1)OCc1ccccc1	1.7%	1.0	5	-0.5	-3	8
CC12CC(NC(=O)N1CCc1ccccc1)c1ccccc1O2 (stereo not given)	·	1.4	15	3.0	1	1
O=C(c1cc2ccccc2cc1O)N1CCCC(C(F)(F)F)C1 (stereo not given)	-0.4%	0.9	29	0.1	-16	4
Cc1nc(-c2ccc(S(=O)(=O)N3CCN(c4cccc(Cl)c4)CC3)cc2)co1	1.1%	1.7	-2	·	·	·
CCNc1c(C(=O)O)ccc2c1C(=O)c1ccccc1C2=O	0.9%	-0.2	4	-5.4	-1	-26
COc1ccc(C(=O)c2ccc(OC)c(Br)c2)cc1Br	2.1%	1.6	-1	-0.9	4	-5
CN1CCN(S(=O)(=O)c2cccc(C(=O)NCCC3=CCCCC3)c2)CC1	-0.4%	0.2	12	-1.0	0	5
CN1CCc2c(sc3c2C(=O)NC(c2ccc(-c4ccc(Cl)cc4)o2)N3)C1 (stereo not given)	7.7%	1.2	20	1.5	-8	-4
COc1ccc(NC(=O)c2cc(=O)c3ccccc3o2)cn1	3.2%	0.0	13	-3.3	-7	-4
O=C(Nc1ccc(F)cc1)C1CCN(S(=O)(=O)c2ccc3c(c2)CCCN3C(=O)C2CCC2)CC1	0.1%	-0.5	9	·	·	·
Cc1ccc(C)c(Nc2c([N+](=O)[O-])c(=O)oc3ccccc23)c1	2.2%	0.7	4	-0.5	-1	9
O=C(NCCC(=O)N1CCCCCCC1)c1ccc(Cl)cc1	-0.6%	-0.2	-9	2.7	5	5
Cc1ccc(-c2csc(C(O)c3ccccc3)n2)cc1C (stereo not given)	3.6%	-0.5	·	5.9	8	5
O=C(c1ccc(Oc2ccc([N+](=O)[O-])cc2Cl)cc1)N1CCCC1	0.4%	1.5	32	1.3	0	-2
COc1ccc(-n2ncc3c(SCC(=O)N4CCN(c5ccccc5OC)CC4)ncnc32)cc1	-0.6%	-0.2	0	1.2	-4	-1
CCN1CCN(Cc2ccc(NC(=O)c3ccc(C)c(NC(=O)C(=O)c4c[nH]c5ccccc45)c3)cc2C(F)(F)F)CC1	-1.7%&-1.0%&-1.4%	0.4&0.1&0.3	-4&-6&-16	2.5&2.0&2.9	-5&0&-17	-14&-20&-16
COC(=O)c1nc(N)sc1-c1ccc(Cl)cc1	6.2%	2.7	-16	2.6	0	15
NC(=O)C1CCN(C(=O)CC(c2ccccc2)c2ccccc2)CC1	0.4%	-0.4	-4	-7.6	-3	0
SMILES	PINK1 expr mod	TRPML1 agonist	TRPML1 inh	D2 agonist	CtBP-E1A inh	Six1-Eya2 blk
Cc1c(Cl)cccc1NC(=O)C1CCN(S(C)(=O)=O)CC1	-0.7%	0.1	57	-2.2	-3	-2
COc1cc(/C=C/C(=O)c2ccccc2O)cc(OC)c1OC	0.5%	·	·	-8.9	-23	1
CCOC(=O)Cc1csc(NC(=S)NC(=O)c2ccccc2C)n1	-0.7%[38.3 µM]	3.6	5	-2.6	5	-2
CCOC(=O)/C(C#N)=C/C=C1\C=Cc2ccccc2N1CC	4.4%	0.9	13	-4.0	·	-27
Cc1ccc(NC(=O)Cc2nnc(SCC(=O)c3ccc(Br)cc3)n2C)cc1	10%[38.3 µM]	3.3	7	1.7	-4	-1
Cc1nc2nc3c(cn2n1)C(=O)CC(C)(C)C3	3.2%	2.9	-27	-1.0	7	7
CC(C)N1CCC2(CC1)N=C(c1ccc3c(c1)OCO3)CC(c1cc(Cl)ccc1O)N2 (stereo not given)	-4.1%	2.2	-4	-4.5	30	9
CC(=O)Nc1ccc(NC(=O)CN(C)S(=O)(=O)c2ccc3nc(C)sc3c2)cc1	2.3%	1.3	-6	-1.6	·	-8
Cc1ccc(C)c(NC(=O)COC(=O)Cc2ccsc2)c1	-1.3%	2.7	3	0.8	2	6
Clc1ccc(CN2CCC(c3ccccc3)CC2)cc1	5.6%	-0.2	-1	0.7	·	5
COc1cc(NC(=O)C(=O)NCCN(C)C)c(OC)cc1Cl	-0.6%	0.1	28	-3.5	-9	-2
O=C(CCN1C(=O)C2CC=CCC2C1=O)Nc1cccc(S(=O)(=O)N2CCCCC2)c1 (stereo not given)	-0.9%	-0.7	-4	1.0	-2	0
Cc1ccc2cc3c(N)c(C(=O)Nc4c(C)[nH]c(=O)[nH]c4=O)sc3nc2c1	32µM*	0.8	-5	0.1	-14	-8
CC1=C(C)C(OCCCl)N(c2cc(O)c(Cl)cc2F)C1=O (stereo not given)	0.4%	·	·	-4.0	2	5
Clc1ccc(-c2cc(-c3nnc4n3CCCCC4)c3ccccc3n2)cc1	2.3%	-0.4	-19	0.6	-10	4
CCOC(=O)C1(C)CCCN(C(=O)c2cc(C)oc2C)C1 (stereo not given)	1.0%	-0.3	·	-2.2	5	-7
OC(CNCCc1ccc(Cl)cc1Cl)COc1ccccc1 (stereo not given)	-3.8%	-1.1	10	2.8	1	5
O=C(COC(=O)c1ccccn1)c1ccc([N+](=O)[O-])cc1	-1.0%	-0.2	0	0.0	?	?
CN1C(=O)[C@H]2[C@@H](/C=C/c3ccccc3)N3C(=O)CN(CC4CC4)C(=O)[C@@]3(C)[C@H]2C1=O	0.0%	0.4	0	-2.5	-17	12
O=C1NC(=S)S/C1=C\c1cc2ccccc2nc1N1CCCCC1	?	0.0	-6	1.9	2	8

Molecules above that have a CF3 group (four):
SMILES	PINK1 expr mod	TRPML1 agonist	TRPML1 inh	D2 agonist	CtBP-E1A inh	Six1-Eya2 blk
CC(=O)c1ccc(N2CCN(S(=O)(=O)c3ccc(-c4cc(C(F)(F)F)on4)s3)CC2)cc1	1.3%	-0.1	6	·	·	·
Cc1cc(-c2ccccc2)nc(Oc2cccc(C(F)(F)F)c2)c1S(C)(=O)=O	1.6%	4.1	78	-2.1	12	26
O=C(c1cc2ccccc2cc1O)N1CCCC(C(F)(F)F)C1 (stereo not given)	-0.4%	0.9	29	0.1	-16	4
CCN1CCN(Cc2ccc(NC(=O)c3ccc(C)c(NC(=O)C(=O)c4c[nH]c5ccccc45)c3)cc2C(F)(F)F)CC1	-1.7%&-1.0%&-1.4%	0.4&0.1&0.3	-4&-6&-16	2.5&2.0&2.9	-5&0&-17	-14&-20&-16
